Screening results deposited in PubChem BioAssay by ICCB-Longwood Screening Facility, Harvard Medical School.
GIV-Gai inh = blocks GIV peptide binding to rat Galpha-i3. actives 0.42% (n = 210,000). percent of control (FP), % (test concentration not listed). Galpha-i3/FITC-GIV peptide fluorescence polarization, 90 min; hits give low values; scaled: aluminum fluoride 0%, vehicle 100%;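 active means replicate mean at 85% of control or lower, very high polarization wells dropped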;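 further: wells of about 15 µL received 100 nL stock; the first replicate is given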
Target sequence (P08753 whole entry, looked up): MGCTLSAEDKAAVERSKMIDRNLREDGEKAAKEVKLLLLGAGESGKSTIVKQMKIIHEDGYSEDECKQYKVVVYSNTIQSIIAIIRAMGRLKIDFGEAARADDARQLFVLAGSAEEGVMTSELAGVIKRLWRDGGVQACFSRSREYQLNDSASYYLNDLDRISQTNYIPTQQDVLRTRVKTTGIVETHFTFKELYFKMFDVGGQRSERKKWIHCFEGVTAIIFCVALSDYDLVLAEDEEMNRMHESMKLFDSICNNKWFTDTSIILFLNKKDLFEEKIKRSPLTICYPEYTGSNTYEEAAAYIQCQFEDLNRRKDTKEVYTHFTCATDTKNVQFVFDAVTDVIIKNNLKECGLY
HCMV UL50-53 inh = inhibitors of HCMV UL50-UL53 nuclear egress complex interaction; HTRF UL50-UL53 interaction, normalized percent inhibition; inhibition, % (no concentration beside the values); actives 0.15% (n = 190,000); AID 1918969;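 active means both replicates at 50% or more, plus weaker picks with an unusually low signal ratio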;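 further: stock transfer was 100 nL into about 20 µL; 0% = negative control wells and 100% = wells with untagged competitor protein; inactives centre near -12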
Sa growth inh = blocks Staphylococcus aureus growth; S. aureus RN4220 growth, OD600, 20 h, 42 °C; hits give low values; relative growth, % (concentration not given with the values); actives 0.53% (n = 170,000); AID 720641;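 active means growth at 42 °C up to 50% and 20 or more points under that at 30 °C, or under 10% at both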;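 further: 300 nL library stock went into each well; scaled to the means of positive and negative controls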
Sa growth inh second temp = also measured in Sa growth inh; calls as there; relative growth, %; measured here: growth at 30 °C;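 optical density after 20 h as mean of two plates; 100% = untreated growth and lower means inhibition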
* hit, by the source's call; . = no result given; & = joins results of further samples.

The opening four records, to show the layout:
[1] CC1(C)C(=O)OC(/C=C\c2ccccc2)C(C)(C)C1=O (configuration not stated)
[2] Cc1[nH]c(C(=O)N2CCCC(C(=O)N3CCN(c4ccccc4)CC3)C2)c(C)c1C (configuration not stated)
[3] CCSc1cc(C)c(C#N)c2nc3ccccc3n12
[4] CC1Oc2ccccc2OC1C(=O)Nc1ccccc1 (configuration not stated)
compound no. | 1 | 2 | 3 | 4
GIV-Gai inh | 105 | 102 | 102 | 99
HCMV UL50-53 inh | -8 | 13 | -16 | -20
Sa growth inh | 99 | . | 94 | 105
Sa growth inh second temp | 95 | . | 89 | 97

All compounds of this part, from the first entry:
[1] CC1(C)C(=O)OC(/C=C\c2ccccc2)C(C)(C)C1=O (configuration not stated)
[2] Cc1[nH]c(C(=O)N2CCCC(C(=O)N3CCN(c4ccccc4)CC3)C2)c(C)c1C (configuration not stated)
[3] CCSc1cc(C)c(C#N)c2nc3ccccc3n12
[4] CC1Oc2ccccc2OC1C(=O)Nc1ccccc1 (configuration not stated)
[5] Cc1ccc2cc(-c3noc(CCCC(=O)NC(C)c4ccccc4)n3)c(=O)[nH]c2c1 (configuration not stated)
[6] Nc1c(C(=O)N2CCCCC2)sc2nc3c(cc12)CCC3
compound no. | 1 | 2 | 3 | 4 | 5 | 6
GIV-Gai inh | 105 | 102 | 102 | 99 | 109 | 99
HCMV UL50-53 inh | -8 | 13 | -16 | -20 | -10 | .
Sa growth inh | 99 | . | 94 | 105 | . | 98
Sa growth inh second temp | 95 | . | 89 | 97 | . | 86

[7] c1ccc2sc(-c3ccc4c(c3)OCCO4)nc2c1
[8] Cc1ccc(-c2cc(-c3nc(-c4ccc(Br)cc4)no3)[nH]n2)cc1C
[9] CC(C)C(Nc1ccccc1)N1C(=O)CCC1=O (configuration not stated)
[10] COC(=O)c1ccccc1NC(=O)N1CCCN(c2ccc(=O)n(-c3ccc(F)cc3)n2)CC1
[11] Cc1nnc(N2CCN(C(=O)NCCC(C)C)CC2)c2nn(-c3ccc(Cl)cc3)c(C)c12
[12] COc1ccccc1CNC(=O)C1COc2ccccc2O1 (configuration not stated)
compound no. | 7 | 8 | 9 | 10 | 11 | 12
GIV-Gai inh | . | 142 | 100 | 104 | 106 | .
HCMV UL50-53 inh | -17 | -13 | -25 | -29 | . | -6
Sa growth inh | 46 | . | 104 | . | 103 | 109
Sa growth inh second temp | 37 | . | 87 | . | 88 | 87

[13] Cc1nc(-c2ccc(S(=O)(=O)NCc3ccccc3Cl)cc2)co1
[14] CSc1nc2ccccc2c(=O)n1CC1CCCCC1
[15] CCOC(=O)N1C/C(=C\c2ccccc2)C(=O)/C(=C/c2ccccc2)C1
[16] Nn1c(SCc2ccccc2Cl)nnc(CCC(=O)O)c1=O
[17] CC1CCCC(C)N1CC(C)(C)NS(=O)(=O)c1ccccc1 (configuration not stated)
[18] CC(C)C(NC(=O)c1ccccc1)C(=O)NCc1ccccn1 (configuration not stated)
compound no. | 13 | 14 | 15 | 16 | 17 | 18
GIV-Gai inh | 98 | 100 | . | 108 | . | .
HCMV UL50-53 inh | . | -13 | 3 | -38 | 11 | -26
Sa growth inh | 104 | 87 | 78 | 88 | 88 | 93
Sa growth inh second temp | 85 | 84 | 81 | 87 | 94 | 94

3 compounds already listed, sorted by their value in GIV-Gai inh, highest first:
item | SMILES | GIV-Gai inh
16 | Nn1c(SCc2ccccc2Cl)nnc(CCC(=O)O)c1=O | 108
14 | CSc1nc2ccccc2c(=O)n1CC1CCCCC1 | 100
13 | Cc1nc(-c2ccc(S(=O)(=O)NCc3ccccc3Cl)cc2)co1 | 98

The results go on:
[19] O=C(Nc1nc2c(cc3c4c(cccc42)CC3)s1)c1ccc(S(=O)(=O)N2CCOCC2)cc1
[20] COc1cc(OC)cc(C(=O)Nc2ncn[nH]2)c1
[21] CC(C)Oc1ccc(CNC(=O)c2ccc(NC(=O)c3nsc4ccccc34)cc2)cc1
[22] COc1ccc(C2CC(C(F)(F)F)n3nc(C(=O)N4CCN(Cc5ccccc5)CC4)cc3N2)cc1 (configuration not stated)
[23] CN(C)S(=O)(=O)Nc1ccc(N2CCCC(CN3CCCC3)C2)c(C(=O)O)c1 (configuration not stated)
[24] CCOC(=O)Cn1c(=O)oc2cc(S(=O)(=O)NCCOC)ccc21
compound no. | 19 | 20 | 21 | 22 | 23 | 24
GIV-Gai inh | 96 | 103 | 103 | 89 | 102 | 105
HCMV UL50-53 inh | -22 | -6 | . | -3 | -15 | -24
Sa growth inh | . | 108 | 98 | . | . | 104
Sa growth inh second temp | . | 92 | 80 | . | . | 88

Next section; the last five above are carried over.
[20] COc1cc(OC)cc(C(=O)Nc2ncn[nH]2)c1
[21] CC(C)Oc1ccc(CNC(=O)c2ccc(NC(=O)c3nsc4ccccc34)cc2)cc1
[22] COc1ccc(C2CC(C(F)(F)F)n3nc(C(=O)N4CCN(Cc5ccccc5)CC4)cc3N2)cc1 (configuration not stated)
[23] CN(C)S(=O)(=O)Nc1ccc(N2CCCC(CN3CCCC3)C2)c(C(=O)O)c1 (configuration not stated)
[24] CCOC(=O)Cn1c(=O)oc2cc(S(=O)(=O)NCCOC)ccc21
[25] CCn1ccc(-c2nc(-c3ccc4c(c3)[nH]c(=O)c(=O)n4CC(C)C)no2)n1
[26] COc1cc2c(cc1NC(=O)Cc1ccccc1)oc1ccccc12
[27] O=C(Nc1ncn[nH]1)c1ccco1
[28] CC1(c2ccccc2)OC(=O)C(=Cc2ccc(O)cc2)C(=O)O1 (configuration not stated)
[29] COCCNC(=O)c1ccc2c(c1)sc1nc(-c3ccccc3)cn12
[30] COC(=O)Cc1c(C)c2ccc(OCC(=O)N(C)C)c(C)c2oc1=O
compound no. | 20 | 21 | 22 | 23 | 24 | 25 | 26 | 27 | 28 | 29 | 30
GIV-Gai inh | 103 | 103 | 89 | 102 | 105 | 104 | 98 | 100 | 96 | 102 | 97
HCMV UL50-53 inh | -6 | . | -3 | -15 | -24 | -30 | . | -11 | -16 | -4 | -2
Sa growth inh | 108 | 98 | . | . | 104 | . | 111 | 103 | 79 | 94 | 98
Sa growth inh second temp | 92 | 80 | . | . | 88 | . | 87 | 87 | 85 | 32 | 105

[31] OC(c1ccccc1)(c1ccccc1)C(F)(F)F
[32] Cc1nn(-c2ccc(N3CCCC3)nn2)c(C)c1CCC(=O)Nc1ccccc1
[33] COC(=O)C1C(=O)C2=C(CC1C)NC(=O)CC2c1cccc(C)c1 (configuration not stated)
[34] CCCNC(=O)Cc1c(C)nc2nc(-c3ccccc3)nn2c1C
[35] Nn1cnc2sccc2c1=O
[36] Cc1cc(-c2ccccc2)[nH]c(=O)c1S(=O)(=O)c1ccccc1
compound no. | 31 | 32 | 33 | 34 | 35 | 36
GIV-Gai inh | . | 103 | 109 | 108 | . | 103
HCMV UL50-53 inh | 8 | . | 1 | -19 | -12 | -21
Sa growth inh | 102 | 101 | 109 | . | 108 | .
Sa growth inh second temp | 108 | 89 | 95 | . | 88 | .

[37] Cc1ccc(Cl)cc1Nc1sc(C(=O)c2ccc(F)cc2)c(N)c1S(C)(=O)=O
[38] Cc1ccc(C(=O)Nc2nc3ccccc3n2CCN2CCOCC2)cc1
[39] CC(Nc1ccc(Oc2ccccc2)cc1)C(=O)N1CCCC1 (configuration not stated)
[40] N#CCNC(=O)C(Sc1ccccc1)c1ccccc1 (configuration not stated)
[41] CCN(c1ccccc1)C1SC(=O)N(c2ccccc2)C1=O (configuration not stated)
[42] O=C(COc1ccc(F)cc1)N1CC(OCc2ccc(F)cc2)C1
compound no. | 37 | 38 | 39 | 40 | 41 | 42
GIV-Gai inh | 103 | 99 | . | 99 | 98 | 102
HCMV UL50-53 inh | -4 | -21 | 0 | -4 | -4 | -19
Sa growth inh | 114 | . | 108 | 108 | 105 | .
Sa growth inh second temp | 91 | . | 93 | 74 | 96 | .

[43] COc1ccccc1N1CCN(CCN2C(=O)CC3(CCCC3)CC2=O)CC1
[44] O=S(=O)(NC1CCCC1)c1ccc(S(=O)(=O)N2CCN(c3ncccn3)CC2)cc1
[45] COc1ccccc1C1=NC(c2ccccc2)CN1c1ccccc1 (configuration not stated)
[46] CCOC(=O)c1nnn2c3ccccc3c(=O)n(Cc3ccc(Cl)cc3)c12
[47] COC(=O)C(C)n1cnc2scc(-c3ccc(OC)cc3)c2c1=O (configuration not stated)
[48] Cc1ccc(S(=O)(=O)N2CCCCC2)cc1-n1c(C)ccc1C
compound no. | 43 | 44 | 45 | 46 | 47 | 48
GIV-Gai inh | 96 | 97 | 102 | 101 | . | .
HCMV UL50-53 inh | 3&3&-19 | -11 | . | 2 | -11 | -32
Sa growth inh | . | 100 | 113 | 123 | 100 | 94
Sa growth inh second temp | . | 79 | 102 | 92 | 78 | 95

The list goes on, overlapping the part above by 5 compounds.
[44] O=S(=O)(NC1CCCC1)c1ccc(S(=O)(=O)N2CCN(c3ncccn3)CC2)cc1
[45] COc1ccccc1C1=NC(c2ccccc2)CN1c1ccccc1 (configuration not stated)
[46] CCOC(=O)c1nnn2c3ccccc3c(=O)n(Cc3ccc(Cl)cc3)c12
[47] COC(=O)C(C)n1cnc2scc(-c3ccc(OC)cc3)c2c1=O (configuration not stated)
[48] Cc1ccc(S(=O)(=O)N2CCCCC2)cc1-n1c(C)ccc1C
[49] Cn1c(=O)c(-c2noc(C(=O)NC3CCCC3)n2)nn(-c2ccccc2)c1=O
[50] O=C(Nc1cccnc1)c1ccc2c(c1)[nH]c(=O)n2CCc1ccccc1
[51] COc1ccccc1NC(=O)COc1ccc(Oc2ccccc2)cc1
[52] Cc1ccc(S(=O)(=O)NCCc2csc3nc(-c4cccc(F)c4)nn23)cc1
[53] O=C(COC(=O)c1ccc2ccccc2n1)NC(c1ccccc1)c1ccccc1
[54] O=S(=O)(c1ccccc1)c1nnn2c1nc(Nc1ccccc1)c1sccc12
compound no. | 44 | 45 | 46 | 47 | 48 | 49 | 50 | 51 | 52 | 53 | 54
GIV-Gai inh | 97 | 102 | 101 | . | . | 100 | 97 | . | 104 | . | 101
HCMV UL50-53 inh | -11 | . | 2 | -11 | -32 | -137 | 8 | 21 | -15 | -24 | .
Sa growth inh | 100 | 113 | 123 | 100 | 94 | . | 99 | 94 | . | 109 | 84
Sa growth inh second temp | 79 | 102 | 92 | 78 | 95 | . | 86 | 103 | . | 89 | 86

Other records follow:
No. | Compound | GIV-Gai inh | HCMV UL50-53 inh | Sa growth inh | Sa growth inh second temp
55 | CCc1cccc(NC(=S)N(CCC(C)C)C(C)c2cccs2)c1 (configuration not stated) | 101 | . | 106 | 78
56 | COc1ccc(NC(=O)Cn2c(=O)c(C(F)(F)F)nc3ccccc32)cc1OC | 101 | -14 | . | .
57 | COc1ccc(CNC(=O)c2cc(-c3ccc(C)c(C)c3)n[nH]2)cc1 | 107 | . | 113 | 89
58 | Cc1ccc(N(C)S(=O)(=O)c2ccc(-c3cc(C(F)(F)F)no3)s2)cc1 | 104 | -17 | 92 | 97
59 | Cc1cc(C(=O)COc2ccc(-c3nnco3)cc2)c(C)n1-c1ccc2c(c1)OCCO2 | . | -24 | 71 | 92
60 | Cc1ccn2c(Nc3ccc(F)cc3)c(-c3ccccn3)nc2c1 | 100 | -10 | 108 | 83
61 | CSC1=NC2(C)CCCCC2c2c1ccc1ccccc21 (configuration not stated) | . | -16 | 103 | 90
62 | Fc1ccccc1OCCCCSc1ncccn1 | 105 | 6 | 109 | 93
63 | C=CCOn1c(=O)c(-c2ccc(OC)c(OC)c2)[n+]([O-])c2ccccc21 | 87 | -88 | 101 | 87
64 | Cc1ccc(CN2COc3cc(C)c4c(oc(=O)c5ccccc54)c3C2)cc1 | 97 | -12 | 97 | 92
65 | CCOc1ccc2ccccc2c1CNc1nnnn1CC | 108 | -28 | 119 | 103
66 | COc1cccc(NC(=O)CCc2nnc3n(Cc4ccccc4Cl)c(=O)c4ccccc4n23)c1 | 100 | -33 | 89 | 87
67 | Nc1cccc(Cl)c1O | 104 | . | 91 | 76
68 | Cc1ccc(N(C)C(=O)c2cnc(N3CCOCC3)c3ccccc23)cc1C | 106 | . | 83 | 89
69 | COc1ccc(OCC(=O)N(Cc2ccc(C)o2)C2CCS(=O)(=O)C2)cc1 (configuration not stated) | 99 | -4 | 114 | 93
70 | Cc1cccc(NS(=O)(=O)c2ccc(NC(=O)CN3C(=O)c4ccccc4S3(=O)=O)cc2)c1 | 104 | -17 | . | .
71 | CCCC(=O)OCc1cnc(C)c2oc(=O)c(C(=O)Nc3ccccc3C(=O)OC)cc12 | 102 | -32 | . | .
72 | CC1CCN(C(=O)c2cccc3c2-c2ccccc2C3=O)CC1 | 102 | -104 | 101 | 83
73 | Cc1[nH]c(C(=O)Nc2ccc(F)cc2F)c(C)c1S(=O)(=O)N1CCCCC1 | 107 | -9 | . | .
74 | COc1ccc(C2c3sc(=O)[nH]c3SCC2/C=N/NC(N)=S)cc1 (configuration not stated) | . | -10 | 68 | 98
75 | O=C(Cn1c2ccccc2c(=O)c2ccccc21)Nc1ccc(Br)cc1OC(F)(F)F | 102 | -29 | . | .
76 | Cc1nc(CC(=O)OCc2nnc(-c3c(-c4ccccc4)noc3C)o2)cs1 | . | -12 | 96 | 92
77 | Cc1noc(C)c1CN1CCC(c2nc3ccccc3s2)CC1 | . | -16 | 87 | 92
78 | O=C(CSc1nc2ccccc2o1)OCc1ccccc1 | . | -2 | 91 | 128
79 | COc1cccc(CNc2nc3ccccc3n2CCN2CCOCC2)c1OC | . | 5 | 101 | 95
80 | Cc1ccc(CNS(=O)(=O)c2ccc(F)c(C(=O)Nc3ccc(C)c(F)c3)c2)cc1 | 104 | . | 154 | 93
81 | CN(C)C(=O)c1ccc(S(=O)(=O)NCc2ccccc2Cl)s1 | 99 | . | 116 | 86
